# High-throughput results: PubChem BioAssay, several laboratories
# ALR H2O2 inh: human ALR oxidase inhibition via reduced H2O2. purified ALR, DTT oxidation, H2O2 HRP-luminol luminescence. 290,000 tested, 3.8% active. inhibition, % (test concentration not listed). AID 485317;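 active = mean and each replicate at 75% or more; inconclusive = only one of the two met; inactive = neither met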;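 also: stock transfer was 7.5 nL into about 7.5 µL; 0% = neutral wells and 100% = wells with inactivated enzyme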
# HNF4A DNA FP: change in binding of human HNF4 alpha to DNA | HNF4a-FITC DNA binding, fluorescence polarization, 1 h | activity change, % at 10 µM | 360,000 tested, 0.3% active | AID 1224865; in the data active = activity change above about 30%, passing the limit was not always enough;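 also: controls were the assay level and a saturating level of protein; the project sought stronger binding though the title names inhibitors; some compounds called inactive have numbers as strong as hits; positive values seem to mean higher polarization but the record does not say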
# Vif A3G: HIV-1 Vif–A3G interaction blockers – biochemical, TR-FRET, GST-Vif 1-94, biotin-A3G peptide, dose response retest, primary screen (AID 1117319); one-dose inhibition, %; IC50 in µM for titrated hits; 260,000 tested, 0.57% active; TR-FRET GST-Vif / biotin-A3G peptide binding; higher % means a stronger effect; test concentration not given here; strong numbers were not always called active;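 active = above the screen mean plus three standard deviations and confirmed in dose response; inconclusive = results disagree or hit not tested in dose response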;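 also: Vif residues 1-94 fused to GST binding biotinylated APOBEC3G peptide 110-148; 0% = full assay without inhibitor and 100% = GST in place of GST-Vif; retest series ran down from 100 µM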
# RanGTP-Imp inh: inhibitors of RanGTP-importin-beta interaction, primary screen, biochemical, FRET, CFP-Ran, YFP-importin-beta, homogeneous. cell-free CFP-Ran/YFP-importin-beta FRET ratio. AID 2216. inhibition, % (concentration not given with the values). 300,000 tested, 1.1% active;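 active = most replicates above 15%; inconclusive = exactly half above 15%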;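 also: 0% = DMSO wells and 100% = Ran loaded with GDP instead of GTP; wells of about 40 µL received 100 nL stock; the first replicate is given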
# LANA-H2A inh: blocks KSHV LANA binding to histone H2A/H2B. Q9QR71. cell-free LANA-H2A/H2B peptide, fluorescence polarization. inhibition, % (test concentration not listed). 320,000 tested, 0.6% active. AID 2629; in the data active = inhibition mostly above about 10%, no sharp cut-off; inactive = mostly below about 6.7%;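 also: stock transfer was 7.5 nL into about 10 µL; 0% = median of vehicle wells and 100% = median of positive control wells; one replicate is shown; the record names a cut of 25% in any replicate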
# Target sequence (Q9QR71 whole entry, looked up): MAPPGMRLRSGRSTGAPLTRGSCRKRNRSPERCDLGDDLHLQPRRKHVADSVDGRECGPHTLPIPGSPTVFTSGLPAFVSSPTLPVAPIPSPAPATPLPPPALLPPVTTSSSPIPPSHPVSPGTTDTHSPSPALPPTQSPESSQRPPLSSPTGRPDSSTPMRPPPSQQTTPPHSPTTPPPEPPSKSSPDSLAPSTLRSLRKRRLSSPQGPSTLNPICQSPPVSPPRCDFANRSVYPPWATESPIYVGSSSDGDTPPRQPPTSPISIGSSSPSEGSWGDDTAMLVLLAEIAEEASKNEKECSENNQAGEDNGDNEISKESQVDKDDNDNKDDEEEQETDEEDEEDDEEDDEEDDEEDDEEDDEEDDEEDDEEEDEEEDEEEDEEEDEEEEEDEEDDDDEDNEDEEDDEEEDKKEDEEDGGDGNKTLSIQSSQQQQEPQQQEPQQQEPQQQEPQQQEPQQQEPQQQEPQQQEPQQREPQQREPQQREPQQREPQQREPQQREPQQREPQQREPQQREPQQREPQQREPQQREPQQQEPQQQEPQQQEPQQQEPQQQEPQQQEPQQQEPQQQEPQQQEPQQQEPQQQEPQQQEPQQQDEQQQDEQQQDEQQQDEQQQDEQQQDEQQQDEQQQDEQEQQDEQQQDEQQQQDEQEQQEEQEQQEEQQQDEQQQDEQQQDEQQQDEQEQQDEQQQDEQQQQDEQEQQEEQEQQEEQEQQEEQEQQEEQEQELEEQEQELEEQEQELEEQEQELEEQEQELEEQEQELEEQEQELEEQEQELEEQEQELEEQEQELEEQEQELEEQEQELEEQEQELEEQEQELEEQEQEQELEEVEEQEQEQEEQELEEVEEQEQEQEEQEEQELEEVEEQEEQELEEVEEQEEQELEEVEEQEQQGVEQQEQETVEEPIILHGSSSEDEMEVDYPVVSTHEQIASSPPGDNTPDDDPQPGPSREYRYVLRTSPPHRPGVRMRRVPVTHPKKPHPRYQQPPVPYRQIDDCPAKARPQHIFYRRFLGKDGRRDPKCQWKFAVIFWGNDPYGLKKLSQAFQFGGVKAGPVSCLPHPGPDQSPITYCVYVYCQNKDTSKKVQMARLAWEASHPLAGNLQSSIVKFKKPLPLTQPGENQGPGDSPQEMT
# B2AR ag: activates human beta-2 adrenergic receptor causing internalization | P07550 | Am2.2-beta2AR cells, FAP receptor internalization, flow cytometry; reference of the scale not given here | response, % (no concentration beside the values) | 340,000 tested, 0.43% active | AID 504454;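 active = response above a set limit, near 3 SD of response in nonfluorescent compounds, cut at about 42% in these data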;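 also: stock transfer was 100 nL into about 11 µL; a reference agonist was the positive control; negative values mostly stem from fluorescent compounds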
# Calb FLC: affects C. albicans growth with fluconazole. C. albicans CaCi-2 (fluconazole-resistant clinical isolate) + fluconazole, Alamar Blue growth, 48 h. 300,000 tested, 0.57% active. growth inhibition, % (test concentration not listed). AID 1979;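 active = most replicates above 75%; inconclusive = exactly half above 75%; inactive = most below 75%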;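 also: all wells also contain fluconazole at 8 µg/ml as a sub-toxic cotreatment; 0% = median of DMSO wells and 100% = median of geldanamycin control wells; wells of about 8 µL received 7.5 nL stock; the first replicate is given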
# Numbers without * were called inactive; i = inactive; ? = inconclusive; . = no result given. Not a hit list (roughly 6.3% active in at least one column).
# Start of the data: the first seven compounds as a preview:
SMILES,ALR H2O2 inh,HNF4A DNA FP,Vif A3G,RanGTP-Imp inh,LANA-H2A inh,B2AR ag,Calb FLC
Cc1cc(NC(=O)c2cccc(S(=O)(=O)Nc3cccc(C(=O)O)c3)c2)no1,-6.0,2.7,32.3%,3.0,-5.1,-0.9,1.8
O=C(/C=C/c1ccoc1)c1ccccc1O,-1.0,0.1,?,0.4,-10.2,3.6,2.1
Cc1csc(NC(=O)c2ccc(C)s2)n1,27.4,7.3,.,0.3,0.8,-2.5,-36.1
COc1ccccc1CN1C[C@@H]2C[C@@H](c3cccc(C)n3)N3CCC[C@@]23C1=O,0.0,4.4,.,-0.7,2.8,5.4,-2.5
CN(CC(=O)NNC(=O)CNC(=O)c1ccccc1F)S(=O)(=O)c1ccc(Cl)cc1,-1.5,3.3,-6.2%,.,-0.1,-13.3,.
O=C(Cn1cnc2ccccc2c1=O)c1ccccc1,2.7,2.4,27.9%,0.2,-6.9,-6.5,2.6
O=C(NCCCN1CCCC1)c1ccc(CS(=O)(=O)c2c(Cl)cccc2Cl)o1,-12.4,0.5,.,-15.3,5.5,2.3,-1.4

# The whole of this part, repeating the preview:
SMILES,ALR H2O2 inh,HNF4A DNA FP,Vif A3G,RanGTP-Imp inh,LANA-H2A inh,B2AR ag,Calb FLC
Cc1cc(NC(=O)c2cccc(S(=O)(=O)Nc3cccc(C(=O)O)c3)c2)no1,-6.0,2.7,32.3%,3.0,-5.1,-0.9,1.8
O=C(/C=C/c1ccoc1)c1ccccc1O,-1.0,0.1,?,0.4,-10.2,3.6,2.1
Cc1csc(NC(=O)c2ccc(C)s2)n1,27.4,7.3,.,0.3,0.8,-2.5,-36.1
COc1ccccc1CN1C[C@@H]2C[C@@H](c3cccc(C)n3)N3CCC[C@@]23C1=O,0.0,4.4,.,-0.7,2.8,5.4,-2.5
CN(CC(=O)NNC(=O)CNC(=O)c1ccccc1F)S(=O)(=O)c1ccc(Cl)cc1,-1.5,3.3,-6.2%,.,-0.1,-13.3,.
O=C(Cn1cnc2ccccc2c1=O)c1ccccc1,2.7,2.4,27.9%,0.2,-6.9,-6.5,2.6
O=C(NCCCN1CCCC1)c1ccc(CS(=O)(=O)c2c(Cl)cccc2Cl)o1,-12.4,0.5,.,-15.3,5.5,2.3,-1.4
O=C1NCCCN1Cc1ccc(Cl)cc1,-6.4,-3.4,17.2%,4.3,-0.9,-2.3,15.3
O=C(Cc1cccc(NC(=O)C2CCCN(C(=O)C3CCCCC3)C2)c1)Nc1cccc(C(=O)N2CCOCC2)c1 (centres undefined),.,-3.2,-3.7%,.,.,-1.0,.
COc1ccc(C(=O)Nc2cccc(C(=O)N/N=C/c3ccc(OC)cc3OC)c2)cc1,0.7,0.0,-2.4%,-0.2,0.7,11.4,20.9
O=C(O)CCN1C(=O)/C(=C/c2cn(-c3ccccc3)nc2-c2cccs2)SC1=S,.,9.9,-1.1%,.,.,-7.0,.
CC(C)CN(/C=N/c1sc2c(c1C#N)CCCCC2)CC(C)C,-4.4,-0.8,-4.2%,3.5,0.9,3.4,-4.0
COc1ccc(NC(=O)Nc2ccc3c(c2)C(=O)N([C@H](C)CO)C[C@H](C)[C@@H](CN(C)S(C)(=O)=O)O3)cc1,-11.6,-0.5,.,.,11.4,4.6,.
O=C(COc1ccccc1)Nc1ccc2c(c1)nc1n2CCOC1,-6.5,-0.9,-2.7%,-0.4,1.4,-21.2,4.7
COc1ccc(C(=O)c2cccc(C(=O)c3ccc(OC)c(C)c3)c2)cc1C,.,3.7,.,5.7,.,-2.2,1.7
CCN(CC)S(=O)(=O)c1ccc(C(=O)Nc2nnc(C(C)C)s2)cc1,-3.3,-1.1,-0.9%,3.1,-0.8,-2.1,23.7
N/C(=N\c1nc2c(c(=O)[nH]1)CCC2)Nc1cccc2ccccc12,-2.9,5.0,1.4%,-1.3,2.2,-6.9,3.1
CCN(c1ccccc1)S(=O)(=O)c1ccc(C(=O)Nc2ccc(C)cn2)cc1,-8.5,3.4,.,-2.5,-6.2,10.5,4.8
CC1=C/C(=C(\c2ccc(O)c(C)c2)c2ccccc2S(=O)(=O)O)C=CC1=O,.,-2.6,.,-2.3,-2.6,2.1,1.8
CCN(CC)c1ccc(C2C3CCCCC3(O)CCN2C(=O)c2cccs2)cc1 (centres undefined),.,-2.0,.,0.2,-2.4,12.1,3.7
COc1ccc(C)cc1NC(=O)C1CCN(S(=O)(=O)c2ccccc2)CC1,-15.9,-9.5,.,0.5,-1.0,3.0,-7.1
COc1ccc(-c2ccc3c(c2)S(=O)(=O)c2cccc(C(=O)NCCOc4ccccc4Cl)c2C3=O)cc1OC,-3.1,-17.0,.,.,-1.1,9.3,.
COCCCNC(=O)CCc1nc2cccnc2n1Cc1ccccc1,0.4,0.1,-1.7%,-10.2,-3.6,0.9,-5.2
Cc1ccc(C)c(NC(=O)c2ccccn2)c1,2.0,7.4,-9.5%,-2.6,-0.1,3.4,-2.4
COc1ccc(CCNC(=O)COC(=O)c2ccc(S(=O)(=O)N3CCCC3)cc2)cc1OC,-0.9,4.9,2.1%,.,-3.4,16.8,.
O=C1CC(c2ccccc2)CC(O)=C1C=NCC1CCCO1 (centres undefined),-2.0,-0.8,13.2%,1.6,1.4,1.6,-2.5
CCc1nc2oc3ccc(C)cc3c(=O)c2cc1C(=O)OC,1.1,2.1,-21.2%,0.6,1.1,6.9,-3.7
CCS(=O)(=O)Nc1c(C)n(C)n(-c2ccccc2)c1=O,5.3,2.7,-6.8%,2.2,1.4,-3.1,-23.1
N#CC(c1ccc(Cl)cc1)c1ncc(C(F)(F)F)cc1Cl (centres undefined),21.5,-0.1,13.8%,0.5,3.7,-5.1,1.2
CC1CCCC(NC(=O)C2N(CCCN3CCCC3)C(=O)C3C(C(=O)Nc4ccc(Cl)cc4)C4C=CC32O4)C1C (centres undefined),-14.4,-2.6,.,-4.7,2.3,-0.2,-11.5
O=C(O)CCCC(=O)NS(=O)(=O)c1ccc(Cl)cc1,-10.1,-2.6,?,2.0,-2.6,-3.3,31.3
C=C1CCC(C)C(C)(CCC2=CCOC2=O)C/C=C\C=C/1C(=O)O (centres undefined),3.2,-9.2,.,-1.1,2.7,0.9,-2.0
CCc1ccc(N(CC(=O)Nc2ccc(OC)cc2OC)S(C)(=O)=O)cc1,-8.0,0.1,-6.7%,-0.9,2.6,-2.9,7.4
O=C(C[C@@H]1C/C=C/CC[C@H](Cc2ccc(F)cc2)C(=O)OCCNC1=O)N[C@H](CO)Cc1ccccc1,1.4,3.6,.,.,i,-1.4,.
COc1ccc2oc(C(=O)OCC(=O)N(CCC#N)c3ccccc3)c(C)c2c1,5.6,0.8,.,1.5,0.2,0.1,20.5
Cc1cccc(NC(=O)c2sc(Cl)nc2C)c1C,-3.6,-5.8,1.5%,-0.6,-1.7,0.2,-20.1
CCC(=O)N1CCc2cc(S(=O)(=O)CCC(=O)N3CCN(c4ccc(F)cc4)CC3)ccc21,17.5,1.9,.,5.1,5.3,-26.5,-5.4
CC(C)CC(=O)N/C(N)=N/c1nc2ccccc2s1,-3.0,-3.9,1.2%,-2.7,-2.3,5.0,-9.3
CC1(C)C(=O)C2(CCCCC2)C(=O)OC1c1cccc([N+](=O)[O-])c1 (centres undefined),-2.9,-1.1,.,-1.5,3.3,-8.9,-6.4
COc1ccc(Nc2ccc(C(=O)O)cc2[N+](=O)[O-])cc1,22.6,0.3,0.7%,0.1,4.8,-2.4,24.5
CCOC(=O)c1cc2sc(C)cc2n1CC(=O)N(CC)CC,-0.9,-0.6,-3.3%,-2.4,2.5,-1.1,3.0
O=C(CSc1nnc(-c2ccccc2)n1C1CCCCC1)N1CCCC1,2.5,1.2,1.2%,-5.4,-0.5,-12.4,-2.8
Cc1cnc(C(=O)OCC(=O)Nc2sc3c(c2C(N)=O)CCCC3)cn1,-1.8,-1.5,.,.,-0.3,-2.9,.
COCCC(=O)N1CCC(Oc2ccc(C(=O)NCc3ccon3)cc2)CC1,-17.8,0.4,.,5.5,3.2,-1.3,-1.6
CC1CN(c2nc3ccccn3c(=O)c2/C=C(\C#N)C(N)=O)CC(C)O1 (centres undefined),-2.9,0.4,10.2%,-1.4,-5.3,2.0,4.3
COc1ccc(C(=O)OCC(=O)Nc2cc(C)c(C)cc2[N+](=O)[O-])cc1,-2.2,-1.6,-0.8%,1.7,-1.3,-2.8,0.8
CCOC(=O)CNC(=O)CSc1nnc(-c2ccccc2)c(-c2ccccc2)n1,5.6,0.1,-0.3%,1.0,-1.7,8.4,3.0
Cc1ccc(CN2CCC(c3cc(-c4cccs4)n[nH]3)CC2)cc1,1.3,-0.3,1.9%,6.9,-2.2,15.2,-3.3
CC(=O)c1c(C)[nH]c(C(=O)Nc2cccnc2)c1C,-4.8,4.5,-2.4%,-6.3,1.2,1.7,-3.3
Cc1ccc(CCNC(=O)C23CN(Cc4ccccc4)CC2C(c2ccc([N+](=O)[O-])cc2)=NO3)cc1 (centres undefined),-2.4,0.4,5.2%,?,-3.0,-5.7,-0.4
COc1cccc(NC(=O)c2ccccc2Br)c1,-25.2,-1.9,0.0%,-4.6,-2.1,-4.2,-13.1
COc1ccccc1NC(=O)C/C(N)=N/OCC(=O)Nc1cccc(Cl)c1,.,2.3,.,.,5.0,8.9,.
O=C(NNS(=O)(=O)c1ccc(Br)cc1)c1ccccc1-n1cccc1,7.9,1.3,.,2.3,2.0,-1.3,48.5
COc1cccc(CNS(=O)(=O)c2ccc3c(c2)oc(=O)n3C)c1,-4.9,-3.5,.,-0.2,2.6,-20.7,-5.4
COc1cccc(CN2CC(C(=O)NCCc3ccc(C)s3)CCC2=O)c1 (centres undefined),-5.3,1.1,0.5%,7.7,4.8,3.4,-1.4
COc1cc(O)ccc1C(=O)CCc1ccc(O)cc1,99.3*,3.6,.,-1.9,-0.5,7.2,-1.6
COc1ccccc1Nc1nc(=O)[nH]nc1C,-2.1,-1.6,2.0%,-1.0,6.5,-2.7,13.5
Cn1ncc2c(Nc3ccc(Br)cc3)nc(Nc3ccc(Br)cc3)nc21,0.2,-0.8,.,0.4,-4.3,3.8,8.9
COC(=O)C1=C(C)NC(C)=C(C(=O)OC)C1c1cn(-c2ccccc2)nc1-c1ccco1,32.9,0.2,7.4%,0.6,3.2,-3.1,-2.9
CCN(CC)c1cc(-c2ccccc2)ncn1,.,-5.2,17.6%,4.9,.,-5.9,-1.5
# (list continues)
SMILES,ALR H2O2 inh,HNF4A DNA FP,Vif A3G,RanGTP-Imp inh,LANA-H2A inh,B2AR ag,Calb FLC
CC(=O)c1ccc(NC(=O)C(C)n2c3ccccc3c3nc(=O)cc(C)n32)cc1 (centres undefined),5.4,-3.2,.,-3.9,0.6,-52.3,-4.8
Nc1nonc1-n1nnc(C(=O)N/N=C/c2cc(Cl)ccc2O)c1CN1CCCCCC1,0.6,0.5,.,-4.9,-2.6,-12.3,101.1*
N=C1S/C(=C\c2ccc(O)cc2)C(=O)N1c1ccc(F)cc1,-2.0,-13.8,10.0%,1.1,-2.4,-3.3,-13.3
Cn1c(SCC(=O)N/N=C/c2cc([N+](=O)[O-])ccc2O)nnc1-c1ccccc1,.,-5.4,25.1%,-0.5,-0.4,8.0,-4.4
O=C(C1CCCO1)N1CCN(c2ccc(F)cc2)CC1 (centres undefined),.,0.9,17.3%,-3.2,4.0,-0.5,-4.4
